Bioassay records from PubChem BioAssay.
Calb FLC = affects C. albicans growth with fluconazole; C. albicans CaCi-2 (fluconazole-resistant clinical isolate) + fluconazole, Alamar Blue growth, 48 h; growth inhibition, % (no concentration beside the values); 0.57% of 300,000 active; AID 1979;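 active = most replicates above 75%; inconclusive = exactly half above 75%; inactive = most below 75%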;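 note: all wells also contain fluconazole at 8 µg/ml as a sub-toxic cotreatment; 0% = median of DMSO wells and 100% = median of geldanamycin control wells; wells of about 8 µL received 7.5 nL stock; the first replicate is given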
HNF4A DNA FP = change in binding of human HNF4 alpha to DNA; P41235; HNF4a-FITC DNA binding, fluorescence polarization, 1 h; activity change, % at 10 µM; 0.3% of 360,000 active; AID 1224865; in the data active = activity change above about 30%, passing the limit was not always enough;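 note: controls were the assay level and a saturating level of protein; the project sought stronger binding though the title names inhibitors; some compounds called inactive have numbers as strong as hits; positive values seem to mean higher polarization but the record does not say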
LANA-H2B inh = blocks KSHV LANA binding to histone H2A/H2B | cell-free LANA-H2A/H2B peptide, fluorescence polarization | inhibition, % (no concentration beside the values) | 0.6% of 320,000 active | Q9QR71; in the data active = inhibition mostly above about 10%, no sharp cut-off; inactive = mostly below about 6.7%;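 note: stock transfer was 7.5 nL into about 10 µL; 0% = median of vehicle wells and 100% = median of positive control wells; one replicate is shown; the record names a cut of 25% in any replicate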
ALR inh = blocks human ALR sulfhydryl oxidase activity; purified ALR, DTT oxidation, H2O2 HRP-luminol luminescence; P55789; 3.8% of 290,000 active; inhibition, % (test concentration not listed);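 active = mean and each replicate at 75% or more; inconclusive = only one of the two met; inactive = neither met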;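 note: stock transfer was 7.5 nL into about 7.5 µL; 0% = neutral wells and 100% = wells with inactivated enzyme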
Target sequence (P55789 whole entry, looked up): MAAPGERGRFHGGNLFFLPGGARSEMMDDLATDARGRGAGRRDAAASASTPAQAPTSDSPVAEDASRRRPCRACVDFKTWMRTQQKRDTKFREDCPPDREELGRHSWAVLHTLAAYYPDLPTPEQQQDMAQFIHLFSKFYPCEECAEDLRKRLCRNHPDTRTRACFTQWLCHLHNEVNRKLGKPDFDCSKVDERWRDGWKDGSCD
RanGTP-Imp inh = disruptors of Ran-importin-beta complex formation – biochemical, FRET, CFP-Ran, YFP-importin-beta, homogeneous, primary screen. cell-free CFP-Ran/YFP-importin-beta FRET ratio. 1.1% of 300,000 active. inhibition, % (no concentration beside the values). AID 2216;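 active = most replicates above 15%; inconclusive = exactly half above 15%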;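 note: 0% = DMSO wells and 100% = Ran loaded with GDP instead of GTP; wells of about 40 µL received 100 nL stock; the first replicate is given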
B2AR ag = human beta-2 adrenergic receptor agonism by FAP. Am2.2-beta2AR cells, FAP receptor internalization, flow cytometry; reference of the scale not given here. response, % (concentration not given with the values). 0.43% of 340,000 active;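 active = response above a set limit, near 3 SD of response in nonfluorescent compounds, cut at about 42% in these data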;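 note: stock transfer was 100 nL into about 11 µL; a reference agonist was the positive control; negative values mostly stem from fluorescent compounds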
Target sequence (P07550 whole entry, looked up): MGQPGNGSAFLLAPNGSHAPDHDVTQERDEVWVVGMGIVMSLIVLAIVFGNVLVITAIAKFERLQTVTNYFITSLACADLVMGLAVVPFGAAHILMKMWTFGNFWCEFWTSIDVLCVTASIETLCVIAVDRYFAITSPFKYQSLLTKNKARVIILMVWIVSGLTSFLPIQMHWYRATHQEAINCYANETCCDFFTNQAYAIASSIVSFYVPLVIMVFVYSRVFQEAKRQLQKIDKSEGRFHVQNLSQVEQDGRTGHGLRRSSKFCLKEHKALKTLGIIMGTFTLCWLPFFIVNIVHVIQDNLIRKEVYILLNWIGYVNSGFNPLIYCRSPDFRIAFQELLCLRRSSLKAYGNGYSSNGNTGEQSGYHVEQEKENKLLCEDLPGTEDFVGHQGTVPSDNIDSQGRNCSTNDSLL
Vif A3G = inhibitors of Vif binding to APOBEC3G peptide, primary screen, biochemical, TR-FRET, GST-Vif 1-94, biotin-A3G peptide, dose response retest (AID 1117319); 0.57% of 260,000 active; inhibition, %; hits with a dose series show IC50 in µM; TR-FRET GST-Vif / biotin-A3G peptide binding; higher % means a stronger effect; test concentration not given here; strong numbers were not always called active;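 active = above the screen mean plus three standard deviations and confirmed in dose response; inconclusive = results disagree or hit not tested in dose response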;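 note: Vif residues 1-94 fused to GST binding biotinylated APOBEC3G peptide 110-148; 0% = full assay without inhibitor and 100% = GST in place of GST-Vif; retest series ran down from 100 µM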
Active calls of the source: *; ? = inconclusive; . = no result given.

SMILES	Calb FLC	HNF4A DNA FP	LANA-H2B inh	ALR inh	RanGTP-Imp inh	B2AR ag	Vif A3G
CC(C)c1nnc(NC(=O)CCS(=O)(=O)c2ccccc2)s1	-1	2.6	-1.4	-1	-0.1	-2	.
CC1CCc2nc(NC(=O)CN3CCN(Cc4ccc5c(c4)OCO5)CC3)sc2C1 (configuration not stated)	-9	-3.0	3.9	-2	1.7	-7	5%
CCCN(CC(=O)Nc1ccccc1C)C(=O)c1ccc(S(=O)(=O)N2CCCCC2)cc1	-9	3.8	-3.5	3	2.9	7	0%
COc1ccc(C(=O)N(C)C2CCCN(Cc3ccccc3F)C2)cc1OC (configuration not stated)	-1	1.2	0.4	.	4.3	-1	.
CCc1nc(OCCN(CC)CC)c2oc3ccccc3c2n1	-6	4.0	5.3	-36	4.2	-9	14%
CC(C)NC(=O)/C=C/C(=O)O	-22	2.9	-1.3	-5	0.5	2	3%
O=C(NCc1ccc2c(c1)OCO2)C1CC(c2ccccc2O)=NO1 (configuration not stated)	-4	-0.7	-1.3	14	0.9	-15	0%
CCn1c(=O)c(C(=O)NNC(=O)Cc2ccccc2)c(O)c2ccccc21	3	-0.3	2.1	26	3.9	-3	.
CCN(CC)c1ccc(/C=N/NC(=O)OC)c(O)c1	1	-5.1	-1.9	98*	1.8	-1	0%
COc1ccc(CC(=O)Oc2ccccc2[N+](=O)[O-])cc1	-7	2.1	15	1	0.9	4	.
O=C(NCC(=O)N(c1cccnc1)C(C(=O)NC1CCCCC1)c1cccnc1)c1ccco1 (configuration not stated)	0	-0.3	14*	-2	-1.9	-6	-3%
Cc1cc2c([nH]c3ccccc32)c(C)n1	4	1.6	-2.5	-6	-1.4	12	0%
S=c1[nH]nc(-c2ccccc2)n1/N=C/c1ccc(-c2ccccc2Cl)o1	28	1.8	-3.0	0	3.0	4	.
Cc1ccc(C(=O)COC(=O)c2c(C)cc(=O)oc2C)cc1[N+](=O)[O-]	-8	1.1	-0.6	-35	0.4	0	3%
CC1CCN(C(=O)c2ccccc2NS(=O)(=O)c2ccccc2)CC1	-3	-2.2	3.3	1	2.7	9	.
Cc1c(CCC(=O)NCCCn2ccnc2)c(=O)oc2c(C)c3oc4c(c3cc12)CCCC4	1	4.4	-3.3	-3	0.0	-12	.
Cc1nn(C)c(Oc2ccccc2)c1CCNC(=O)CC(C)C	5	3.3	1.2	-3	2.6	4	2%
CC1(C)SC(=S)N(/N=C/c2cccnc2)C1N(O)C(=O)Nc1ccccc1 (configuration not stated)	-4	-2.5	-0.7	-7	-1.4	5	-1%
Cc1onc(NC(=O)NC(=O)c2c(Cl)cccc2Cl)c1Br	-5	-2.9	-1.2	-9	5.7	14	.
CCN1CCN(CCC(=O)Nc2ccc(Br)c(C)c2)CC1	-7	3.2	2.6	-2	0.8	5	.
Cc1ccc(S(=O)(=O)Oc2ccc(C3C4=C(CCCC4=O)N(CCC(=O)O)C4=C3C(=O)CCC4)cc2Cl)cc1	13	-6.6	-0.2	8	129*	0	14%
Cn1c(=O)c2cc(S(=O)(=O)NC(C(=O)NCc3cccnc3)c3ccccc3)ccc2n(C)c1=O (configuration not stated)	-4	1.0	6.9	-5	?	12	3%
CCC(=O)N1CCc2cc(S(=O)(=O)CCC(=O)Nc3nc(C)cs3)ccc21	3	0.2	-4.2	99*	-0.2	-13	14%
Cc1ccc(-c2nc(CS(=O)CC(=O)NCCCc3ccccc3)c(C)o2)cc1 (configuration not stated)	-8	1.2	4.6	98*	0.4	3	.
O=C(c1cccc2cccc(O)c12)N1CCCCC1	4	-1.3	1.9	-8	-2.7	5	27%
Cc1cc(-c2cccc([N+](=O)[O-])c2)nc2ccc3ccccc3c12	-4	2.6	-3.2	2	0.0	10	-1%
CC(C)(C)OC(=O)N[C@@H](Cc1ccccc1)C(=O)N[C@@H](CO)[C@H](O)[C@@H]1C[C@@H]1C(=O)NC1CCCCC1	.	-2.3	-0.1	3	.	-7	.
Cc1cc(C(F)(F)F)cc(NNC(=O)NC(=O)c2ccc(Cl)cc2)n1	7	0.0	0.9	0	1.1	1	-4%
CCCCCCCCSc1nnc(CSc2nc3nc(C)cc(C)n3n2)o1	2	1.1	5.0	-5	4.0	15	11%
CC/C(=C\C(=O)c1ccncc1)Nc1ccc(O)cc1	19	-2.6	3.0	74	-1.2	7	?
COc1ccc(NC(=O)C2CCN(S(C)(=O)=O)CC2)cc1Cl	-2	2.0	4.5	-5	-1.6	0	-6%
O=c1oc2ccccc2c(NC2CCCCC2)c1NS(=O)(=O)c1ccc(Br)cc1	4	0.0	.	20	2.8	0	.
Cn1cc([C@@H]2C[C@H]3CN(Cc4cccc(Cl)c4)C(=O)[C@]34CCCN24)c(-c2ccccc2)n1	26	3.9	-1.7	-3	3.5	-3	1%
O=[n+]1c2c(n([O-])c3ccccc31)CCC2	13	-1.4	1.4	.	-2.0	2	?
C=CCn1c(C)cc(C2=NNC(=Nc3ccc(C)cc3)SC2)c1C	2	6.0	-0.4	9	3.9	9	-1%
O=C(N=C1SCC(=O)N1c1ccccc1)c1ccco1	.	2.2	-1.3	-7	.	-2	-17%
COCCNC(=S)Nc1ccc(S(=O)(=O)Nc2ncccn2)cc1	6	-1.2	2.7	-3	0.8	-1	.
CN1C(=O)CC(N2CCC(C(N)=O)(N3CCCCC3)CC2)C1=O (configuration not stated)	-2	-4.0	2.2	-23	-1.0	8	-2%
CCN(CC)C(=O)C1CCCN(Cc2nc(-c3cccs3)no2)C1 (configuration not stated)	0	0.3	4.2	-9	?	-7	.
CCCCN(C(=O)c1ccco1)C1CCS(=O)(=O)C1 (configuration not stated)	1	2.8	-0.9	3	-5.0	2	-4%
COc1ccccc1N/C(N)=N/c1nc(CSc2nc3ccccc3s2)cc(=O)[nH]1	4	.	2.2	1	0.8	.	.
COc1cccc(C(=O)OCC(=O)c2c[nH]c3ccccc23)c1OC	.	3.0	-3.9	-1	.	2	-3%
CCOC(=O)C1=C(C)N=c2s/c(=C\c3ccc(OC(C)=O)c(OCC)c3)c(=O)n2C1/C=C/c1ccccc1 (configuration not stated)	-3	7.6	4.2	-7	-0.5	-150	12%
Cc1[nH]c2ccccc2c1N=Nc1cc(C(=O)O)cc(C(=O)O)c1	14	-4.8	2.4	59	-4.7	6	1%
Cc1noc(C)c1S(=O)(=O)N1CCC(C(=O)NCCc2ccc(S(N)(=O)=O)cc2)CC1	-9	0.9	5.2	1	0.1	6	10%
O=C(CSc1nccc(=O)[nH]1)NC1CCCc2ccccc21 (configuration not stated)	1	-0.9	-3.4	.	1.0	-2	-8%
Nc1nnc(SCCN2C(=O)c3ccccc3S2(=O)=O)s1	-13	-0.2	1.9	.	4.6	13	4%
CCc1c(O)nc(SCC(=O)Nc2cc(C)on2)n(-c2ccccc2)c1=O	-1	4.2	2.9	97*	4.3	-1	.
Cc1cc(=O)n2[nH]c(C(=O)O)nc2n1	-1	-0.2	-1.8	-3	2.7	4	2%
COc1ccc(CNC(=O)CN(C)Cc2ccc(C(C)(C)C)cc2)cc1	0	-0.9	-3.4	-3	0.4	6	-11%
COc1ccc(C2CC(=O)C3=C(C2)Nc2ccccc2N(C(=O)CCC(=O)O)C3c2ccc(F)cc2)cc1 (configuration not stated)	11	1.7	-1.3	-7	?	13	-5%
Cc1cccc(OCc2nc3ccccc3n2C)c1	4	-6.2	0.3	-4	2.3	-19	8%
CC1=NOC(=O)/C1=C/c1ccc2c(c1)OCO2	-8	-0.5	-1.4	6	0.4	-5	12%
Cc1ccccc1-n1c(O)cc(=O)[nH]c1=S	-15	5.9	-0.1	2	1.8	-2	16%
Cn1nccc1C(=O)Nc1ccccc1C(=O)O	12	-0.7	-3.4	2	1.9	7	7%
COCCNC(=O)CSC1=N/C(=C/c2ccc(Cl)c(Cl)c2)C(=O)N1c1ccccc1F	-2	-0.1	-2.1	35	6.0	-2	.
N#Cc1ccc(NC2c3ccccc3CC2O)cc1 (configuration not stated)	.	-1.4	.	.	.	4	-8%
O=C(Cc1cccc(NC(=O)C2CCN(C(=O)CCc3ccccc3)CC2)c1)Nc1cccc(C(=O)N2CCCC2)c1	.	-6.7	-0.4	-1	.	-11	.
CC(=O)Nc1ccc2cc3ccc(NC(C)=O)cc3nc2c1	14	-36	-0.1	-28	37*	-80	-10%
Clc1ccc(CNCC2CCCO2)cc1 (configuration not stated)	-1	0.4	-6.5	4	-3.9	4	.

3 entries out of the list, ordered by molar mass, smallest number first.
SMILES	Calb FLC	HNF4A DNA FP	LANA-H2B inh	ALR inh	RanGTP-Imp inh	B2AR ag	Vif A3G
Cc1cccc(OCc2nc3ccccc3n2C)c1	4	-6.2	0.3	-4	2.3	-19	8%
COc1cccc(C(=O)OCC(=O)c2c[nH]c3ccccc23)c1OC	.	3.0	-3.9	-1	.	2	-3%
COCCNC(=S)Nc1ccc(S(=O)(=O)Nc2ncccn2)cc1	6	-1.2	2.7	-3	0.8	-1	.

Following part:
SMILES	Calb FLC	HNF4A DNA FP	LANA-H2B inh	ALR inh	RanGTP-Imp inh	B2AR ag	Vif A3G
O=C(CCCOc1ccccc1)NNC(=O)c1ccncc1	.	7.4	-0.5	-1	.	1	-6%
Brc1ccccc1OCCCn1cnc2ccccc21	10	2.8	-3.3	-10	-2.9	2	0%
O=C1Nc2c(c(=O)[nH]c(=O)n2Cc2ccccc2)C1(NS(=O)(=O)c1ccccc1)C(F)(F)F (configuration not stated)	10	-0.2	-4.1	0	?	2	29%
O=P(c1ccc2c(c1)OCCO2)(N1CCOCC1)N1CCOCC1	2	-0.1	-6.2	4	0.4	1	1%
CCn1nc(C(=O)NNS(=O)(=O)c2cc(/C=C/C(=O)O)cc(OC)c2OC)c2ccccc2c1=O	.	-37	2.8	4	.	2	-3%
COc1cc(C2C(C#N)=C(N)Oc3n[nH]c(-c4cccnc4)c32)ccc1OCC(N)=O (configuration not stated)	6	0.7	0.6	3	3.0	-5	?
O=S(=O)(Nc1ncccn1)c1ccc(Nc2ncnc3ccccc23)cc1	0	1.2	4.3	-11	-0.3	-12	0%
COc1cc(Cl)ccc1OCc1cc(C(=O)NC(C)Cc2cnccn2)no1 (configuration not stated)	7	-4.0	-2.1	-10	-1.5	0	?
CC(Nc1ccccc1)c1ccncc1 (configuration not stated)	4	-3.1	0.3	2	2.5	-1	-7%
CS(=O)(=O)N(CC(=O)N1CCN(Cc2ccccc2)CC1)c1cccc([N+](=O)[O-])c1	2	2.3	1.0	-18	-6.6	-5	.

Some of the entries so far, with values under each structure:
Results follow in this order: Calb FLC	HNF4A DNA FP	LANA-H2B inh	ALR inh	RanGTP-Imp inh	B2AR ag	Vif A3G
Cc1ccc(-c2nc(CS(=O)CC(=O)NCCCc3ccccc3)c(C)o2)cc1 (configuration not stated)
  -8	1.2	4.6	98*	0.4	3	.
O=C(c1cccc2cccc(O)c12)N1CCCCC1
  4	-1.3	1.9	-8	-2.7	5	27%
Cc1cc(-c2cccc([N+](=O)[O-])c2)nc2ccc3ccccc3c12
  -4	2.6	-3.2	2	0.0	10	-1%
CC(C)(C)OC(=O)N[C@@H](Cc1ccccc1)C(=O)N[C@@H](CO)[C@H](O)[C@@H]1C[C@@H]1C(=O)NC1CCCCC1
  .	-2.3	-0.1	3	.	-7	.
